rRNA inh HTS: inhibitors of bacterial rRNA selective over humanized ribosomes; E. coli WT GFP vs humanized-ribosome RFP mutants, fluorescence, 24 h; hits give low values; DMSO median 0, no signal -100; GFP signal change (wild-type ribosome), % (no concentration beside the values); 350,000 tested, 1.6% active; AID 720706;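 active means significant combined selectivity score with lowered wild-type GFP, culture density cut under 30%, mutant RFP and density less affected; inactive means any of these conditions unmet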; further: one replicate is shown; some compounds called inactive have numbers as strong as hits
FGF22 binding: shifts melting point of recombinant human FGF22; Q9HCT0; recombinant FGF22 thermal shift, SYPRO orange fluorescence; percent of sucrose octasulfate shift, DMSO zero; calls only at 9.99 µM; 340,000 tested, 1.5% active;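 active means melting point raised past a set limit in the mean and every replicate; three in four hits are not shown here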
Target sequence (Q9HCT0 whole entry, looked up): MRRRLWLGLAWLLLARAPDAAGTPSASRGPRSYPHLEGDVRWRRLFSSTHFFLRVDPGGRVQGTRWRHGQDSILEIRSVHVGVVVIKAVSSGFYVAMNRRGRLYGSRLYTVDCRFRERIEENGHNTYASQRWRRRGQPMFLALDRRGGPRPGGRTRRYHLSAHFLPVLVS
rRNA inh HTS OD600: recorded beside rRNA inh HTS, whose call it bears; OD600 change, %; measured here: OD600 growth;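 optical density of the mix in the first replicate; 0 = DMSO median and -100 = no signal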
rRNA inh HTS RFP: further read-out of rRNA inh HTS, marked with its call; RFP signal change, %; measured here: RFP humanized mutant strains;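 first replicate; 0 = DMSO median and -100 = no signal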
* hit, by the source's call; i = inactive; & = joins results of further samples. Some of the compounds tested (hit frequency here may not be typical).

No.	canonical_smiles	rRNA inh HTS	rRNA inh HTS OD600	rRNA inh HTS RFP	FGF22 binding
1	O=C(C[C@H]1CC[C@H]2[C@@H](COC[C@H](O)CN2S(=O)(=O)c2ccccc2)O1)N1CCOCC1	2.5	17.1	-4.2	i
2	C[C@H](NC(=O)C[C@H]1CC[C@H]2[C@@H](COC[C@@H](O)CN2C(=O)Nc2cc(Cl)cc(Cl)c2)O1)c1ccccc1	-26.1	-43.3	14.5	i
3	O=C(NCC[C@@H]1CC[C@@H](NS(=O)(=O)c2ccc(Cl)cc2)[C@H](CO)O1)c1ccccc1F	-1.9	-3.9	0.3	i
4	Cc1ccc(S(=O)(=O)N(C)C[C@H]2OCCCC[C@@H](C)Oc3ccc(N(C)C)cc3C(=O)N([C@@H](C)CO)C[C@H]2C)cc1	-6.2	-7.1	-1.4	i
5	COc1ccc(C#Cc2cccc(-c3nc(C(=O)O)cc4c3[C@H](CCO)N(S(=O)C(C)(C)C)C4)c2)cc1OC (stereo partly drawn)	0.6	-7.7	0.0	i
6	COC(=O)C1=C(C)N(Cc2ccccc2C(F)(F)F)C(=NCc2ccccc2)NC1c1cccc(F)c1 (stereo not drawn)	-36.3	-70.0	-7.3	i
7	Cc1noc(C)c1S(=O)(=O)Nc1ccc2c(c1)C(=O)N([C@@H](C)CO)C[C@H](C)[C@H](CN(C)C(=O)CCC(F)(F)F)OCCCC[C@@H](C)O2	3.0	-0.1	-0.6	i
8	CCC(=O)N1[C@H](C(=O)Nc2nccs2)[C@@H](CO)[C@@H]2Cn3c(ccc(C4=CCCCC4)c3=O)[C@@H]21	2.4	0.8	-0.2	i
9	CCCNC(=O)Nc1ccc2c(c1)OC[C@H](C)NC[C@@H](C)[C@@H](OC)CN(C)C2=O	1.1	-0.8	-1.6	i
10	COc1ccc(S(=O)(=O)N2CC[C@H]3[C@H](CO)Nc4ccc(C#Cc5cccnc5)cc4[C@H]32)cc1	-7.8	-11.3	1.2	i
11	CO[C@@H](CN(C)C(=O)c1ccc2c(c1)OCO2)[C@@H](C)CN([C@@H](C)CO)S(=O)(=O)c1ccc(F)cc1	2.9	1.8	-0.9	i
12	COc1ccc(S(=O)(=O)N(C)C[C@H]2Oc3ccc(NC(=O)Cn4cnnn4)cc3CC(=O)N([C@H](C)CO)C[C@@H]2C)cc1	1.6	5.8	-0.8	i
13	O=C(NCC[C@@H]1CC[C@H](NS(=O)(=O)c2cccc(F)c2)[C@H](CO)O1)C1CCCC1	-1.8	-3.9	1.0	i
14	C[C@H]1CN([C@@H](C)CO)S(=O)(=O)c2ccc(C3=CCCC3)cc2O[C@H]1CN(C)Cc1cncnc1	-0.4	-0.8	0.6	i
15	CCC(=O)N1CCCCN2[C@H](CO)[C@@H](c3ccc(-c4cccnc4)cc3)[C@@H]2C1	3.1	10.3	-3.1	i
16	O=C(Cc1ccccn1)NCC[C@@H]1CC[C@H](NS(=O)(=O)c2ccc(F)cc2)[C@H](CO)O1	2.2	-4.4	-0.2	i
17	O=C(c1ccccn1)N1C[C@H]2[C@@H](c3ccccc31)[C@@H](CO)N2C(=O)Nc1ccccc1	3.1	3.8	-1.9	i
18	C[C@H]1CN([C@@H](C)CO)C(=O)c2c(c3ccccc3n2C)-c2ccccc2CO[C@@H]1CN(C)Cc1ccc(C(=O)O)cc1	-1.2	9.0	-4.1	i
19	C[C@H](CO)N1C[C@H](C)[C@H](CN(C)Cc2ccc(F)cc2)Oc2ncc(/C=C/c3ccccc3)cc2C1=O	-42.8	-70.9	1.9	i
20	CO[C@@H]1CN(C)C(=O)c2ccc(NC(=O)c3cc(C)on3)cc2OC[C@@H](C)N(C(C)=O)C[C@@H]1C	2.7	7.5	-0.6	i
21	O=C(Cc1ccccc1)N1CC[C@@H]2[C@H](CO)Nc3ccc(-c4ccccc4)cc3[C@@H]21	-25.4	-59.3	-3.2	i
22	C[C@@H]1CCCCO[C@H](CN(C)CC2CC2)[C@@H](C)CN([C@H](C)CO)C(=O)c2cc(NS(=O)(=O)c3ccc(Cl)cc3)ccc2O1	8.2	9.1	-1.1	i
23	Cc1noc(C)c1NC(=O)Nc1ccc2c(c1)CC(=O)N([C@H](C)CO)C[C@H](C)[C@H](CN(C)Cc1ccc(C(=O)Nc3ccccc3N)cc1)O2	-1.9	0.2	-3.8	i
24	C[C@@H]1CN([C@@H](C)CO)C(=O)Cc2cc(NC(=O)Cc3cn(C)c4ccccc34)ccc2O[C@@H]1CN(C)C(=O)Nc1ccc(C(F)(F)F)cc1	1.1	-9.3	0.5	i
25	C[C@H](CO)N1C[C@H](C)[C@H](CN(C)C(=O)Nc2ccccc2)OCc2cn(nn2)CCCC1=O	-1.2	1.0	-0.4	i
26	C[C@@H]1CN([C@@H](C)CO)C(=O)c2cc(NC(=O)NC3CCCCC3)ccc2O[C@@H]1CN(C)C(=O)Nc1cccc2ccccc12	-1.0	-1.2	1.8	i
27	c1ccc(Cc2cnc(N3CCN(Cc4ccc5c(c4)OCCO5)CC3)nc2)cc1	-5.1	-11.1	-0.9	i
28	COc1ccc(S(=O)(=O)N[C@H]2CC[C@H](CCNC(=O)CN3CCOCC3)O[C@@H]2CO)cc1	1.6	4.0	-2.0	i
29	CO[C@H]1CN(C)C(=O)c2cc(NC(=O)Nc3ccccc3F)ccc2OC[C@@H](C)N(C)C[C@H]1C	-0.9	2.8	-1.9	i
30	C[C@@H]1CCCCO[C@@H](CN(C)C(=O)C2CCCCC2)[C@@H](C)CN([C@H](C)CO)C(=O)c2cc(NC(=O)Nc3ccc4c(c3)OCO4)ccc2O1	1.3	2.9	-0.2	i
31	C[C@@H]1CN([C@@H](C)CO)C(=O)Cc2cc(NC(=O)Cn3cnnn3)ccc2O[C@@H]1CN(C)S(=O)(=O)c1ccc(F)cc1	1.2	-1.2	-1.7	i
32	C[C@@H]1CN([C@@H](C)CO)C(=O)Cc2cc(NC(=O)CCCN(C)C)ccc2O[C@H]1CN(C)C(=O)Nc1ccccc1	6.6	11.4	-0.8	i
33	Cc1ccc(CN(C)C[C@H]2OCc3cnnn3CCCC(=O)N([C@H](C)CO)C[C@H]2C)cc1	-1.2	4.6	1.0	i
34	Cc1ccc(S(=O)(=O)N(C)C[C@H]2OCCCC[C@@H](C)Oc3ccc(NC(=O)c4ccccc4)cc3C(=O)N([C@H](C)CO)C[C@@H]2C)cc1	-3.6	0.9	-0.4	i
35	CCN(C[C@H]1[C@H](c2ccc(-c3cccnc3)cc2)[C@H](CO)N1C(C)=O)C(C)=O	0.7	5.6	-2.3	i
36	C[C@@H]1CCCCO[C@H](CN(C)C(=O)Nc2ccc3c(c2)OCO3)[C@@H](C)CN([C@H](C)CO)C(=O)c2cc(NC(=O)Nc3ccccc3)ccc2O1	1.0	2.9	0.3	i
37	C[C@@H]1CN([C@@H](C)CO)C(=O)c2cccc(NC(=O)c3nc4ccccc4s3)c2O[C@H]1CN(C)Cc1ccc(-c2ccccc2)cc1	4.1	4.5	0.9	i
38	Cc1ccc(S(=O)(=O)Nc2ccc3c(c2)C(=O)N([C@@H](C)CO)C[C@@H](C)[C@H](CN(C)Cc2ccncc2)OCCCC[C@H](C)O3)cc1	-1.7	-0.7	2.2	i
39	Cc1ccc(S(=O)(=O)N(C)C[C@H]2Oc3ccc(NS(=O)(=O)c4ccccc4)cc3CC(=O)N([C@H](C)CO)C[C@H]2C)cc1	-1.8	-10.1	0.2	i
40	Cc1noc(C)c1NC(=O)N(C)C[C@H]1Oc2ccc(NC(=O)Cc3ccccc3)cc2C(=O)N([C@@H](C)CO)C[C@H]1C	4.4	6.5	-0.2	i
41	COC(=O)C[C@H]1CC[C@H]2[C@H](COc3ccc(NC(=O)NC(C)C)cc3C(=O)N2C)O1	-0.4	-1.0	-1.2	i
42	C[C@H]1CCCCO[C@H](CN(C)C(=O)Nc2ccccc2)[C@@H](C)CN([C@@H](C)CO)C(=O)c2cc(N(C)C)ccc2O1	-4.5	-3.8	2.4	i
43	C[C@@H]1CCCCO[C@@H](CN(C)Cc2ccccc2)[C@@H](C)CN([C@H](C)CO)C(=O)c2cc(NC(=O)C3CCCCC3)ccc2O1	8.2	5.9	-2.6	i
44	C[C@@H]1CCCCO[C@@H](CN(C)C(=O)Nc2cccc3ccccc23)[C@H](C)CN([C@H](C)CO)C(=O)c2cc(NC(=O)c3ccncc3)ccc2O1	-5.5	-13.1	-0.6	i
45	COc1cccc(CNC(=O)[C@H]2CCCN2C(=O)[C@H]2CCCN2C(=O)c2ccc(OC(F)(F)F)cc2)c1	10.5	6.1	2.2	i
46	OC[C@H]1[C@@H](c2ccc(-c3ccc(F)cc3)cc2)[C@@H]2CN(CCC(F)(F)F)CCCCN12	4.8	-6.7	2.7	i
47	O=C(C[C@H]1C=C[C@H](NC(=O)C2CCC2)[C@H](CO)O1)Nc1nccs1	4.1	-0.8	-4.8	i
48	C[C@@H]1CN([C@@H](C)CO)C(=O)c2cc(/C=C/c3ccccc3)cnc2O[C@H]1CN(C)C(=O)c1ccncc1	-0.3	2.0	-4.4	i
49	O=C(C[C@@H]1C[C@@H]2c3cc(NS(=O)(=O)c4ccccc4)ccc3O[C@@H]2[C@@H](CO)O1)NCC1CC1	-1.4	-3.0	2.1	i
50	COCC#Cc1ccc([C@H]2[C@@H](CO)N3CCCCN(S(=O)(=O)c4cccc(OC)c4)C[C@@H]23)cc1	-5.0	-30.2	2.0	i

Some entries already given, limited to rRNA inh HTS OD600 and rRNA inh HTS RFP.
nr | canonical_smiles | rRNA inh HTS OD600 | rRNA inh HTS RFP
5 | COc1ccc(C#Cc2cccc(-c3nc(C(=O)O)cc4c3[C@H](CCO)N(S(=O)C(C)(C)C)C4)c2)cc1OC (stereo partly drawn) | -7.7 | 0.0
6 | COC(=O)C1=C(C)N(Cc2ccccc2C(F)(F)F)C(=NCc2ccccc2)NC1c1cccc(F)c1 (stereo not drawn) | -70.0 | -7.3

Continued:
51. C[C@H]1CN([C@@H](C)CO)S(=O)(=O)c2ccc(/C=C/c3ccccc3)cc2O[C@@H]1CN(C)C
52. Cc1noc(C)c1NC(=O)Nc1ccc2c(c1)CC(=O)N([C@H](C)CO)C[C@@H](C)[C@H](CN(C)Cc1ccc(Cl)c(Cl)c1)O2
53. CN(C)C(=O)c1cccc(-c2ccc(C3[C@H]4CNC[C@@H]3N4C(=O)Nc3ccccc3F)cc2)c1 (stereo partly drawn)
54. C[C@H](CO)N1C[C@H](C)[C@H](CN(C)C)Oc2ccc(NC(=O)NC3CCCCC3)cc2C1=O
55. CCCC(=O)N1CC2(CN(Cc3cccnc3)C2)c2c([nH]c3cc(OC)ccc23)[C@@H]1CO
56. Cc1noc(C)c1NC(=O)Nc1ccc2c(c1)C(=O)N([C@@H](C)CO)C[C@H](C)[C@@H](CN(C)S(=O)(=O)c1c(C)noc1C)OCCCC[C@@H](C)O2
57. COc1ccc(S(=O)(=O)Nc2cccc3c2O[C@@H](CN(C)C(=O)NC(C)C)[C@H](C)CN([C@H](C)CO)C3=O)cc1
58. C[C@H](CO)N1C[C@H](C)[C@H](CN(C)C(=O)Nc2ccc(C(F)(F)F)cc2)Oc2ccc(NC(=O)Nc3ccccc3)cc2CC1=O

screen / no.,51,52,53,54,55,56,57,58
rRNA inh HTS,1.5,-1.9,2.4&0.9,4.1,-1.1,1.0,4.2,-2.7
rRNA inh HTS OD600,2.9,-4.7,4.1&-5.1,17.6,-3.3,4.5,4.6,-14.1
rRNA inh HTS RFP,14.6,2.6,0.2&-2.1,-0.4,-3.4,1.0,2.3,-1.1
FGF22 binding,i,i,i,i,i,i,i,i

Sorted by the number under rRNA inh HTS (rising): some entries from above
52. Cc1noc(C)c1NC(=O)Nc1ccc2c(c1)CC(=O)N([C@H](C)CO)C[C@@H](C)[C@H](CN(C)Cc1ccc(Cl)c(Cl)c1)O2
56. Cc1noc(C)c1NC(=O)Nc1ccc2c(c1)C(=O)N([C@@H](C)CO)C[C@H](C)[C@@H](CN(C)S(=O)(=O)c1c(C)noc1C)OCCCC[C@@H](C)O2
54. C[C@H](CO)N1C[C@H](C)[C@H](CN(C)C)Oc2ccc(NC(=O)NC3CCCCC3)cc2C1=O

screen / no.,52,56,54
rRNA inh HTS,-1.9,1.0,4.1
rRNA inh HTS OD600,-4.7,4.5,17.6
rRNA inh HTS RFP,2.6,1.0,-0.4
FGF22 binding,i,i,i

(list continues)
59. C[C@H](CO)N1C[C@H](C)[C@H](CN(C)CC2CCCCC2)Oc2ccc(NC(=O)Nc3cccc4ccccc34)cc2C1=O
60. C[C@@H]1CN([C@@H](C)CO)S(=O)(=O)c2ccc(C#Cc3ccccc3)cc2O[C@H]1CN(C)S(C)(=O)=O
61. CO[C@@H](CN(C)S(=O)(=O)c1ccccc1)[C@@H](C)CN(C(=O)Nc1ccccc1F)[C@H](C)CO
62. C[C@@H]1CN([C@@H](C)CO)C(=O)Cc2cc(NC(=O)CCN3CCOCC3)ccc2O[C@@H]1CN(C)C
63. C[C@H]1CN([C@@H](C)CO)C(=O)c2cc(-c3cccc(C(=O)N(C)C)c3)cnc2O[C@H]1CN(C)C
64. C[C@@H]1CN([C@@H](C)CO)C(=O)c2cc(NC(=O)Nc3ccccc3)ccc2O[C@@H](C)CCCCO[C@H]1CN(C)Cc1ccc2c(c1)OCO2
65. CC(C)NC(=O)N[C@@H]1CC[C@@H](CC(=O)N2CCCCC2)O[C@H]1CO
66. CCC(=O)N1C[C@H]2[C@@H](c3ccccc31)[C@H](CO)N2Cc1ccccc1Cl

screen / no.,59,60,61,62,63,64,65,66
rRNA inh HTS,-34.5,-5.7,-1.7,1.1,4.7,-0.7,-1.5,-10.0
rRNA inh HTS OD600,-38.1,-5.9,7.2,6.6,-0.3,3.4,1.3,-7.8
rRNA inh HTS RFP,13.6,13.8,-4.1,0.3,-0.4,0.1,-2.0,-0.4
FGF22 binding,i,i,i,i,i,i,i,i

Screening data: PubChem BioAssay, Broad Institute
